Screening data (PubChem BioAssay)
c-Myc SMM: binders of human c-Myc, primary screen, biochemical, small molecule microarray, anti-His fluorescence; calls only; His-c-Myc binding; actives 1.5% (n = 17,000); Myc proto-oncogene protein (Homo sapiens), P01106;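 active = spot fluorescence over background with P-value below 7% in all four replicate spots, showing protein binding; compounds were printed on slides so no solution concentration is given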;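 also: score is binary with 100 for all four spots passing and 0 otherwise; about 2 pmol printed per array spot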
STAT3 binder: STAT3 binders, primary screen, biochemical, small molecule microarray, single point, set 2 | calls only | actives 0.2% (n = 17,000) | His-STAT3 binding, anti-His fluorescence | Signal transducer and activator of transcription 3 (Homo sapiens), P40763;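 active = compounds whose four printed spots each show fluorescence over background unusually high for their array block, chance value under 7%; compounds were printed on slides so no solution concentration is given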;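 also: about 2 pmol printed per array spot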
Target sequence (P40763 whole entry, looked up): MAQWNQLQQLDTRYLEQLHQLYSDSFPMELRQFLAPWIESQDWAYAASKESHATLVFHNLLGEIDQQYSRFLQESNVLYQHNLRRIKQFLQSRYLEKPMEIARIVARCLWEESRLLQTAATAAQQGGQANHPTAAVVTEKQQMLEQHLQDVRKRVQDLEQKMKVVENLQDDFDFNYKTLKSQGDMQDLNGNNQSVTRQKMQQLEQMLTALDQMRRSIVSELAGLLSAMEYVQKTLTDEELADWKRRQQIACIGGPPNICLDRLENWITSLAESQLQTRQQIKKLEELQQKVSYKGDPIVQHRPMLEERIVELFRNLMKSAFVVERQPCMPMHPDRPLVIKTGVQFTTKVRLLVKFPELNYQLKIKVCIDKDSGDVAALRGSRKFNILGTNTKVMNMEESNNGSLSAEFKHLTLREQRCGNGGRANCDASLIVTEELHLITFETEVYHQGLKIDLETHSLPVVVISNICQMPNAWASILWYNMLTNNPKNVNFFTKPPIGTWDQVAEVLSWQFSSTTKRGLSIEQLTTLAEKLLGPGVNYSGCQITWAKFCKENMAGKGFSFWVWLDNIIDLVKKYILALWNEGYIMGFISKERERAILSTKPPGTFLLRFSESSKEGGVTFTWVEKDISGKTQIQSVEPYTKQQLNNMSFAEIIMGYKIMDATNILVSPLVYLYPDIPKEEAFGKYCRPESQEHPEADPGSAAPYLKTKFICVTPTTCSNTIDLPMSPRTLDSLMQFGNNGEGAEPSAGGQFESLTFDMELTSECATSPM
ID4 binder: binders of human ID4 protein, primary screen, biochemical, small molecule microarray, single point. DNA-binding protein inhibitor ID-4 (Homo sapiens), P47928. Flag-ID4 binding, fluorescence F/B. calls only. actives 1.2% (n = 31,000). AID 624137, 2012;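 active = spot signal over background at p below 0.07 in all four prints; compounds were printed on slides so no solution concentration is given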;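 also: a binder raises fluorescence above local background on the spot; about 2 pmol printed per array spot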
Target sequence (P47928 whole entry, looked up): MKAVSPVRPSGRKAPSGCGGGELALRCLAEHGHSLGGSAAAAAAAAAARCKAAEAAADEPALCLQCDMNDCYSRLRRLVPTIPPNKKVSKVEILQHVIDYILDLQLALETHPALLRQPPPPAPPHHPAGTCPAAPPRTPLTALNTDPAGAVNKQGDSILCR
mut p53 SMM: binders of human mutant p53, primary screen, biochemical, small molecule microarray, anti-GST fluorescence; mutant tumor protein p53 (GST-tagged), Homo sapiens; small molecule microarray binding; calls only; actives 0.4% (n = 17,000); AID 624136, 2012;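 active = compounds whose four printed spots each glow above background more than chance allows, each with a p-value under 7%; compounds were printed on slides so no solution concentration is given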;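 also: about 2 pmol printed per array spot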
Calls only; i = inactive; · = no result given; + = active, no number. Some of the compounds tested; count on the stated rates, not on these rows.

Preview:
smiles | c-Myc SMM | STAT3 binder | ID4 binder | mut p53 SMM
C[C@@H]1CN([C@H](C)CO)C(=O)c2cccc(NC(=O)c3ccc(-c4nccs4)cc3)c2O[C@H]1CN(C)C(=O)NC1CCCCC1 | i | i | i | i
COc1ccc(S(=O)(=O)N(C)CCc2ccccn2)cc1 | + | + | i | i

Results, repeating the preview:
smiles | c-Myc SMM | STAT3 binder | ID4 binder | mut p53 SMM
C[C@@H]1CN([C@H](C)CO)C(=O)c2cccc(NC(=O)c3ccc(-c4nccs4)cc3)c2O[C@H]1CN(C)C(=O)NC1CCCCC1 | i | i | i | i
COc1ccc(S(=O)(=O)N(C)CCc2ccccn2)cc1 | + | + | i | i
COc1ccc(S(=O)(=O)N(C)CC(=O)Nc2ccc3c(c2)OCCO3)cc1OC | i | i | i | i
Cc1cccc(NC(=O)C(=O)NCCCn2ccnc2)c1 | i | i | i | i
CCO[C@@H]1OC(C(=O)N2CCN(C)CC2)=C[C@H](C(C)(C)C)[C@H]1CCCO | i | i | i | i
C[C@@H]1CN([C@@H](C)CO)C(=O)CCCn2nncc2CO[C@@H]1CN(C)Cc1ccc2cccnc2c1 | i | i | · | i
CC(C)NC(=O)Nc1ccc2c(c1)C(=O)N([C@@H](C)CO)C[C@H](C)[C@H](CN(C)C(=O)Nc1ccc(F)cc1)OCCCC[C@@H](C)O2 | i | i | i | i
CCCCC(=O)Oc1ccccc1C(=O)O | i | i | i | i
Cc1c(C#N)c2ccccc2n1CC(=O)NCCc1c[nH]c2ccccc12 | i | i | i | i
COc1ccc(S(=O)(=O)N(C)C[C@@H]2Oc3ccc(NC(=O)CCCN(C)C)cc3C(=O)N([C@@H](C)CO)C[C@@H]2C)cc1 | i | i | i | i
CNC[C@@H]1OCCCC[C@H](C)Oc2ccc(NC(=O)c3ccccc3)cc2C(=O)N([C@@H](C)CO)C[C@H]1C | i | i | · | i
Cc1cc(OCC(=O)Nc2ccccc2C(=O)N2CCCCC2)c(C)cc1Br | i | i | i | i
CC(C)(C)NC(=O)c1cccc(NC(=O)COc2ccc3ccccc3c2)c1 | i | i | i | i
C[C@@H]1CN([C@H](C)CO)C(=O)c2cc(NC(=O)C3CCCCC3)ccc2O[C@H]1CN(C)C(=O)Nc1ccc2c(c1)OCO2 | i | i | · | i
CN1CCN(C(=O)C2=C[C@H](c3ccc(C(F)(F)F)cc3)C[C@H](OCc3ccc(CO)cc3)O2)CC1 | i | i | i | i
C[C@@H]1CN([C@H](C)CO)C(=O)c2cc(NS(C)(=O)=O)ccc2O[C@H]1CN(C)C(=O)Nc1ccccc1 | i | i | i | i
CSc1ccccc1NC(=O)CN(C)S(=O)(=O)c1c(C)cc(C)cc1C | i | i | i | i
CNC[C@@H]1Oc2c(NC(=O)NC3CCCCC3)cccc2C(=O)N([C@H](C)CO)C[C@H]1C | i | i | i | i
C[C@@H]1CN([C@H](C)CO)C(=O)c2cc(NC(=O)c3ccncc3)ccc2O[C@@H](C)CCCCO[C@H]1CN(C)Cc1ccc(C(=O)O)cc1 | i | i | i | i
O=S(=O)(NC1CCN(Cc2cccc(OCCO)c2)CC1)c1ccc(Cl)cc1 | i | i | i | i
COc1cc(CC(CO)C(CO)Cc2ccc(O)c(OC)c2)ccc1O (stereo not drawn) | i | i | · | i
COC(=O)COc1c(Sc2ccc([N+](=O)[O-])cc2)c(C)nn1-c1ccccc1 | i | i | i | i
COc1ccc(-c2nc(SCc3cc(Cl)ccc3OC)n[nH]2)cc1 | i | i | i | i
C[C@@H]1CN([C@H](C)CO)C(=O)c2cc(NS(C)(=O)=O)ccc2O[C@@H](C)CCCCO[C@H]1CN(C)C(=O)Nc1ccc(C(F)(F)F)cc1 | i | i | i | i
Cc1ccc2nsnc2c1S(=O)(=O)N1CCN(CCc2ccccc2)CC1 | i | i | i | i
C[C@H](CO)N1C[C@H](C)[C@H](CN(C)Cc2ccc3c(c2)OCO3)Oc2ccc(NC(=O)NC3CCCCC3)cc2CC1=O | i | i | i | i
COc1ccc(S(=O)(=O)N(C)C[C@@H]2Oc3c(NS(=O)(=O)c4c(C)noc4C)cccc3C(=O)N([C@H](C)CO)C[C@@H]2C)cc1 | i | i | i | i
CNC[C@@H]1OCCCC[C@H](C)Oc2ccc(NC(=O)Nc3c(C)noc3C)cc2C(=O)N([C@@H](C)CO)C[C@H]1C | i | i | · | i
C[C@@H]1CCCCO[C@H](CN(C)Cc2ccccc2)[C@H](C)CN([C@H](C)CO)C(=O)c2cc(NC(=O)Nc3ccc4c(c3)OCO4)ccc2O1 | i | i | i | i
C[C@H]1CN([C@@H](C)CO)C(=O)CCCn2cc(nn2)CO[C@H]1CN(C)C(=O)Nc1cccc(Oc2ccccn2)c1 | i | i | i | i
CC(NS(=O)(=O)c1ccccc1)C(=O)Nc1ccc(Oc2ccccc2)cc1 (stereo not drawn) | i | i | i | i
COC(=O)COc1ccc2c(=O)c(Oc3cnn(-c4ccccc4)c3)c(C(F)(F)F)oc2c1C | i | i | i | i
COC(=O)c1c(NC(=O)c2ccccc2N(C)S(C)(=O)=O)sc2c1CCCC2 | i | i | i | i
C[C@H]1CN([C@@H](C)CO)C(=O)Cc2cc(NC(=O)Nc3ccc(C(F)(F)F)cc3)ccc2O[C@@H]1CN(C)CC1CC1 | i | i | i | i
C[C@@H]1CN([C@H](C)CO)C(=O)c2cc(NS(C)(=O)=O)ccc2O[C@@H](C)CCCCO[C@@H]1CN(C)C(=O)Cc1ccccc1 | i | i | i | i
CCCc1cc(=O)[nH]c(SCC(=O)Nc2ccc3c(c2)OCCO3)n1 | i | i | i | i
COc1ccc(CN(C)C[C@H]2Oc3ccc(NC(=O)Cc4ccccc4)cc3C(=O)N([C@@H](C)CO)C[C@H]2C)cc1 | i | i | i | i
C[C@@H]1CN([C@@H](C)CO)C(=O)CCCn2cc(nn2)CO[C@H]1CN(C)C(=O)Cc1ccccc1 | i | i | i | i
C[C@H]1CCCCO[C@@H](CN(C)C(=O)Cc2ccccc2)[C@@H](C)CN([C@@H](C)CO)C(=O)c2cc(NS(C)(=O)=O)ccc2O1 | i | i | i | i
COc1ccc(CN(C)C[C@H]2Oc3ccc(NS(=O)(=O)c4ccc(Cl)cc4)cc3CC(=O)N([C@H](C)CO)C[C@@H]2C)cc1 | i | i | i | i
CC(=O)c1ccc(NC(=O)CSc2nnc(N)n2-c2ccccc2)cc1 | i | i | i | i
Cc1noc(C)c1NC(=O)Nc1ccc2c(c1)CC(=O)N([C@H](C)CO)C[C@@H](C)[C@H](CN(C)S(=O)(=O)c1cn(C)cn1)O2 | i | i | i | i
CC(C)NC(=O)Nc1ccc2c(c1)C(=O)N([C@H](C)CO)C[C@@H](C)[C@H](CN(C)C(=O)Nc1ccccc1)OCCCC[C@@H](C)O2 | i | i | i | i
Nc1ncnc2c1ncn2CCN1CCOCC1 | i | i | i | i
O=C(NCCCO)C(=O)NCC1COc2ccccc2O1 (stereo not drawn) | i | i | i | i

2 entries picked at random from those above:
smiles | c-Myc SMM | STAT3 binder | ID4 binder | mut p53 SMM
CNC[C@@H]1Oc2c(NC(=O)NC3CCCCC3)cccc2C(=O)N([C@H](C)CO)C[C@H]1C | i | i | i | i
COc1ccc(-c2nc(SCc3cc(Cl)ccc3OC)n[nH]2)cc1 | i | i | i | i

Remaining list, next part:
smiles | c-Myc SMM | STAT3 binder | ID4 binder | mut p53 SMM
C[C@H]1CN([C@@H](C)CO)C(=O)c2cccc(NC(=O)Nc3cccc4ccccc34)c2O[C@H]1CN(C)C(=O)NC1CCCCC1 | i | i | i | i
CSCCC(Nc1ncnc2sc3c(c12)CCCC3)C(=O)O (stereo not drawn) | i | i | i | i
C[C@H](CO)N1C[C@H](C)[C@H](CN(C)S(=O)(=O)c2ccccc2)OCCCC[C@H](C)Oc2ccc(NC(=O)Nc3ccccc3)cc2C1=O | i | i | i | i
Cc1noc(C)c1NC(=O)Nc1ccc2c(c1)CC(=O)N([C@@H](C)CO)C[C@H](C)[C@H](CN(C)C(=O)NC(C)C)O2 | i | i | i | i
Cc1noc(C)c1NC(=O)N(C)C[C@H]1Oc2ccc(N(C)C)cc2CC(=O)N([C@@H](C)CO)C[C@@H]1C | i | i | i | i
Cc1cc(C)nc(SC(C)C(=O)Nc2ccc(Cl)cc2)n1 (stereo not drawn) | i | i | i | i
C[C@H]1ON(c2ccccc2)[C@@H](c2ccccc2)[C@@H]1C(=O)N1C(=O)OC[C@@H]1c1ccccc1 | i | i | · | i
C[C@@H]1CN([C@H](C)CO)C(=O)c2cc(NS(C)(=O)=O)ccc2O[C@H]1CN(C)C(=O)Nc1ccc(F)cc1 | i | i | i | i
C[C@@H]1CN([C@@H](C)CO)C(=O)Cc2cc(NC(=O)NC3CCCCC3)ccc2O[C@@H]1CN(C)C(=O)NC1CCCCC1 | i | i | i | i
O=C(CCSc1nc(-c2ccco2)cc(C(F)(F)F)n1)Nc1cccnc1 | i | i | i | i
Cn1c(SCC(=O)N2CCN(c3ccccc3)CC2)nnc1-c1cc2ccccc2o1 | i | i | i | i
C[C@@H]1CN([C@@H](C)CO)C(=O)Cc2cc(NC(=O)C3CC3)ccc2O[C@@H]1CN(C)Cc1ccc(C(F)(F)F)cc1 | i | i | i | i
COc1ccc(CN(C)C[C@H]2OCCCC[C@@H](C)Oc3ccc(NC(=O)Nc4ccc5c(c4)OCO5)cc3C(=O)N([C@@H](C)CO)C[C@H]2C)cc1 | i | i | · | i
CC12N=C3SCc4ccccc4CN3[C@H](c3ccccc3O1)[C@H]2CO[Si](C)(C)C(C)(C)C | i | i | i | i
C[C@@H]1CN([C@@H](C)CO)C(=O)c2cccc(NC(=O)NC3CCCCC3)c2O[C@H]1CN(C)C(=O)Nc1ccc(F)cc1 | i | i | i | i
CCCc1occc(=O)c1CC=O | i | i | i | i
CC(C)NC(=O)N(C)C[C@H]1OCCCC[C@@H](C)Oc2ccc(NS(=O)(=O)c3ccccc3)cc2C(=O)N([C@H](C)CO)C[C@H]1C | i | i | i | i
COC1CCC(C(=O)c2ccc3nc4c(cc3c2)CCCO4)CC1 (stereo not drawn) | i | i | i | i
Cc1noc(C)c1NC(=O)N(C)C[C@H]1OCCCC[C@H](C)Oc2ccc(NS(=O)(=O)c3cn(C)cn3)cc2C(=O)N([C@@H](C)CO)C[C@H]1C | i | i | i | i
N#C/C(=C/c1ccc(O)c(O)c1)C(=O)OCCc1cccs1 | i | i | i | i
C[C@@H]1CN([C@@H](C)CO)C(=O)Cc2cc(NS(=O)(=O)c3cn(C)cn3)ccc2O[C@@H]1CN(C)Cc1ccc(C(=O)O)cc1 | i | i | · | i
Cc1noc(C)c1NC(=O)Nc1ccc2c(c1)CC(=O)N([C@H](C)CO)C[C@H](C)[C@@H](CN(C)C(=O)NC(C)C)O2 | i | i | i | i
COc1ccc(S(=O)(=O)N(C)C[C@@H]2Oc3ccc(NC(=O)Nc4cccc5ccccc45)cc3CC(=O)N([C@H](C)CO)C[C@H]2C)cc1 | i | i | i | i
C[C@H](CO)N1C[C@H](C)[C@H](CN(C)S(=O)(=O)c2cn(C)cn2)Oc2ccc(NC(=O)CCN3CCOCC3)cc2CC1=O | i | i | i | i
CC(C)CNC(=O)[C@@]1(c2ccc([N+](=O)[O-])cc2)CC(=O)N(CC23CC4CC(CC(C4)C2)C3)[C@@H]1c1ccc(CO)cc1 | i | i | i | i
O=C(N1CCCCC1)[C@@]1(CCS(=O)(=O)c2ccccc2)N=C(c2ccc(OCCCO)cc2)O[C@H]1c1ccccc1 | i | i | i | i
CC(C)CC(=O)c1c(O)cc(O)cc1OC1OC(COC(=O)c2cc(O)c(O)c(O)c2)C(O)C(O)C1O (stereo not drawn) | i | i | · | i
COc1ccc(OC)c(S(=O)(=O)N2CCC(C(=O)Nc3cccc(SC)c3)CC2)c1 | i | i | i | i
COc1ccc(OC)c(S(=O)(=O)Nc2cc([N+](=O)[O-])ccc2C)c1 | i | i | i | i
COc1ccc(OC)c(NC(=O)COc2ccc(F)cc2)c1 | i | i | i | i
COc1ccc(CN(C)C[C@@H]2Oc3ccc(NC(=O)Cc4cn(C)c5ccccc45)cc3C(=O)N([C@@H](C)CO)C[C@H]2C)cc1 | i | i | i | i
C[C@H]1CN([C@@H](C)CO)C(=O)c2cccc(NC(=O)C3CCOCC3)c2O[C@@H]1CN(C)Cc1ccccc1 | i | i | i | i
COc1ccc(CSc2ncn[nH]2)cc1[N+](=O)[O-] | i | i | i | i
Cc1noc(C)c1NC(=O)Nc1cccc2c1O[C@@H](CN(C)S(=O)(=O)c1cn(C)cn1)[C@@H](C)CN([C@@H](C)CO)C2=O | i | i | i | i
C[C@@H]1CN([C@H](C)CO)C(=O)c2cccc(NC(=O)c3cnccn3)c2O[C@H]1CN(C)S(=O)(=O)c1cn(C)cn1 | i | i | i | i
